Compound activity: PubChem, National Center for Advancing Translational Sciences (NCATS)
Six1-Eya2 inh – qHTS Assay for Inhibitors of the Six1/Eya2 Interaction. AID 651725, 2012. AlphaScreen GST-Six1/His-Eya2 binding, biochemical; hits give low values; control for the full effect not named in the record. Homeobox protein SIX1 (Homo sapiens) + Protein phosphatase EYA2 (Homo sapiens), …. activity change, % (test concentration not listed). 360,000 compounds, 0.56% hits; in the data active = activity change below about -65%; inconclusive = about -30% to -65%; inactive = above about -30%; note: % is set by controls: 0 for no effect and ±100 for the full control effect
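AlphaScreen luminescence read after one hour at 37 °C in darkness. Pin-transferred compounds met GST-Six1 and His-Eya2 protein (5X stock 250 nM/500 nM) plus glutathione donor and Ni-chelate acceptor beads (5X, 50 ug/mL).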
TRPML1 agonist – qHTS for Agonists of the Human Mucolipin Transient Receptor Potential 1 (TRPML1); Mucolipin-1 (Homo sapiens), Q9GZU1; TRPML1-expressing cells, Ca2+ dye fluorescence, FDSS; host cell line not named in the record; reference of the full effect not given here; activation, % (test concentration not listed); 410,000 compounds, 0.12% hits; in the data active = activation above about 50%; inconclusive = about 30% to 50%; inactive = below about 30%; note: 0% is about no effect; the text of the record puts the active cut at 80%
Target sequence (Q9GZU1 whole entry, looked up): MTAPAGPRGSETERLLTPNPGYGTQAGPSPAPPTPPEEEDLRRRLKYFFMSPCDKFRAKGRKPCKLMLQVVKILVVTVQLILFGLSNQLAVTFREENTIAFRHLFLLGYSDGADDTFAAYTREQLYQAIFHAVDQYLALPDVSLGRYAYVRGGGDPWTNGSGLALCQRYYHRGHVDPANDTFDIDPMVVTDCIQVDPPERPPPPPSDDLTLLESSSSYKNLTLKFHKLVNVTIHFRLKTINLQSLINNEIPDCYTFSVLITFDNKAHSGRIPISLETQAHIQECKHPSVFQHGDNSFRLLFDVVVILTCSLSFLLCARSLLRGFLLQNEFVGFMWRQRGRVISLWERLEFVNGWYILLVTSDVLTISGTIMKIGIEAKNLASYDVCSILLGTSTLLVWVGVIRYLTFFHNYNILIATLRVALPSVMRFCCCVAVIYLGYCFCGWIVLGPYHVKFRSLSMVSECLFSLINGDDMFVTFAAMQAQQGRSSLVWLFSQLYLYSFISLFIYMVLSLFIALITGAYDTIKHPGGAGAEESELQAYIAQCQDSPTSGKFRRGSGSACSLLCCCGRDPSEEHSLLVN
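Tet-induced TRPML1-DL cells, 1,500 per well, cultured overnight, were loaded with a no-wash Ca2+ dye for 45–90 min. Calcium fluorescence was recorded on the FDSS for 110 s after compound addition, before the EC80 agonist (4 uM 54-4) was added.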
TRPML1 inh – qHTS for Inhibitors of the Human Mucolipin Transient Receptor Potential 1 (TRPML1); Mucolipin-1 (Homo sapiens), Q9GZU1; activity change, negative = inhibition, % (test concentration not listed); TRPML1-inducible cells, Ca2+ dye fluorescence, FDSS; hits give low values; inhibition of EC80 agonist-evoked calcium signal; 390,000 compounds, 0.02% hits; in the data active means activity change below about -50%; inconclusive means about -30% to -50%; inactive means above about -30%;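 note: stimulus is agonist 54-4 at its EC80 concentration; % is set by controls: 0 for no effect and ±100 for the full control effect; compound concentration not given in the record; the text of the record puts the active cut at -80%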
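Calcium fluorescence in TRPML1-DL cells induced overnight with Tet: a 110 s read after compound pin addition, then a 110 s antagonist read after challenge with 54-4 at 4 uM final (EC80).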
D2 PAM – Beta-Arrestin HTS for Positive Allosteric Modulators of the Human D2 Dopamine Receptor: Potentiators. D(2) dopamine receptor (Homo sapiens), P14416. DiscoveRx D2 beta-arrestin cells, luminescence, 90 min; 100% = 57 uM dopamine signal. potentiation, % (test concentration not listed). 360,000 compounds, 0.23% hits. AID 624464, 2012; active = potentiation of 50% or more; inconclusive = 30% to 50%; inactive = 30% or less;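 note: compound concentration not given in the record; tested on top of an EC20 dose of dopamine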
Target sequence (P14416 whole entry, looked up): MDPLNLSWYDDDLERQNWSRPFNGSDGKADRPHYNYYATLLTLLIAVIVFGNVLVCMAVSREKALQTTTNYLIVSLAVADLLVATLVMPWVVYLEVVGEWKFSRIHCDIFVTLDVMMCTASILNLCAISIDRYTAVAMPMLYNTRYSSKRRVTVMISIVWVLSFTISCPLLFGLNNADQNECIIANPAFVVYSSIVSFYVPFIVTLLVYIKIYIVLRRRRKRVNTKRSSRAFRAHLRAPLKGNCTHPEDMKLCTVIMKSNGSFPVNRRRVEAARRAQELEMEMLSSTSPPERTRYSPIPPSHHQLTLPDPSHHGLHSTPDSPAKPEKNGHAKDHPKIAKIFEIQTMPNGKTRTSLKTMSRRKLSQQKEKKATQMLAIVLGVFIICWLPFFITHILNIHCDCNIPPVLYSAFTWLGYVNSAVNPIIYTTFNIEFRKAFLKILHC
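PathHunter D2 cells, attached overnight at 37 deg C, received compound in DMSO plus dopamine at EC20 (50 nM final) for 90 min at 37 deg C. Beta-arrestin recruitment was read as luminescence after 1 h with detection reagent at ambient temperature.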
PINK1 modulator – A Quantitative High throughput Screen to Identify Chemical Modulators of PINK1 Expression; PINK1 immunofluorescence, high-content cytometry, 24 h; AID 624263, 2012; Potency, µM (titrated, usually from 76.6 µM), for the others: at the highest dose activation (PINK1 increase), hits mostly activators; 410,000 compounds, 0.2% hits; active = well fitted activation curve with a large enough effect; inconclusive = small, poorly fitted or top-dose-only effect; inactive = flat fitted curve, though single readings scatter; cell line not stated here;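 note: potency is the fitted concentration of half-maximal effect; % of control where 0% means no effect; nearly all actives have a fitted effect of over 65% in size; a mitochondrial uncoupler was the plate control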
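Fluorescence from anti-PINK1 antibody, together with nuclear and cell stains, was scanned on a laser-scanning cytometer. Before staining, stable-line cells were incubated 24 hours with compounds at 5 concentrations; primary antibody 12 h at 10 degrees C.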
D2 ag – Beta-Arrestin HTS for Positive Allosteric Modulators of the Human D2 Dopamine Receptor: Agonists. D(2) dopamine receptor (Homo sapiens), P14416. DiscoveRx PathHunter D2 beta-arrestin, luminescence, 90 min; 100% = 57 uM dopamine signal. activation, % (test concentration not listed). 360,000 compounds, 0.084% hits. AID 624465, 2012; in the data active = activation above about 40%; inconclusive = about 15% to 40%; inactive = below about 15%; note: compound concentration not given in the record; the text of the record calls up to 30% inactive
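Agonist mode: compounds alone added to overnight-plated D2 PathHunter cells for 90 min at 37 C, with 57 uM final dopamine (EC100) defining full response. Beta-arrestin recruitment detected by chemiluminescent reagent, read after 1 h at ambient temperature.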
Numbers without * were called inactive; & = joins results of further samples.

Results for CCN(c1ccccc1)S(=O)(=O)c1ccc(Cl)c(NC(=O)COC(=O)c2ccc(O)cc2)c1 ?
Six1-Eya2 inh: 2; TRPML1 agonist: 0.8; TRPML1 inh: -14; D2 PAM: -16; PINK1 modulator: -0.4%; D2 ag: 1.8

What do the screens show for `COC(=O)C[C@H]1c2cc(F)cc(F)c2S(=O)(=O)N1C1CCN(Cc2ccccc2)CC1`?
Six1-Eya2 inh: -2; TRPML1 agonist: 0.0&0.0; TRPML1 inh: -6; D2 PAM: -24; PINK1 modulator: -0.4%; D2 ag: -3.3

What do the screens show for `CCOC(=O)C1(Cc2ccc(OC)cc2)CCN(C(=O)CCc2cnccn2)CC1`?
Six1-Eya2 inh: 2; TRPML1 agonist: 0.5; TRPML1 inh: -4; D2 PAM: 3; PINK1 modulator: 5.3%; D2 ag: -0.5

Results for O=C1CC(NS(=O)(=O)c2ccc([N+](=O)[O-])cc2)CN1c1ccc2c(c1)OCCO2 (configuration not stated) ?
Six1-Eya2 inh: 0; TRPML1 agonist: 3.0; TRPML1 inh: 24; D2 PAM: inconclusive; PINK1 modulator: -7.4%; D2 ag: inconclusive

How did CNC(=O)C[C@@H]1C(=O)N(c2ccc(Br)cc2)CC1(C)C do in these assays?
Six1-Eya2 inh: 11; TRPML1 agonist: -0.2; TRPML1 inh: -5; D2 PAM: 1; PINK1 modulator: -1.1%; D2 ag: -2.7

Results for CC(C)Sc1cc(N2CCCC2)nc(-c2ccc(F)cc2)n1 ?
Six1-Eya2 inh: 9; TRPML1 agonist: 0.6; TRPML1 inh: 17; D2 PAM: -11; PINK1 modulator: 4.3%; D2 ag: -4.1

How did CCS(=O)(=O)c1nc(S(=O)(=O)c2ccc(Cl)cc2)c(NCc2ccccn2)s1 do in these assays?
Six1-Eya2 inh: 1; TRPML1 agonist: 1.2; TRPML1 inh: 44; D2 PAM: -10; PINK1 modulator: 1.5%; D2 ag: 5.4

Results for O=c1[nH]c(SCc2ccc(Cl)cc2)nc2[nH]ncc12 ?
Six1-Eya2 inh: 5; TRPML1 agonist: -0.1; TRPML1 inh: -4; D2 PAM: -1; PINK1 modulator: 18%; D2 ag: 0.5

What do the screens show for `COCCN(C(=O)c1cccc(N2C(=O)CCC2=O)c1)c1nc(-c2ccc([N+](=O)[O-])cc2)cs1`?
Six1-Eya2 inh: inconclusive; TRPML1 agonist: 0.2; TRPML1 inh: 8; D2 PAM: 27; PINK1 modulator: 1.8%; D2 ag: -1.4

Results for COc1ccccc1N1CCN(C(=O)CCc2nnc3ccc(N4CCOCC4)nn23)CC1 ?
Six1-Eya2 inh: 1; TRPML1 agonist: -0.4; TRPML1 inh: -1; D2 PAM: -29; PINK1 modulator: 0.9%; D2 ag: -2.9

Results for CN(CC(=O)Nc1ccccc1Cl)C(=O)COC(=O)c1ccc(C(F)(F)F)cc1 ?
Six1-Eya2 inh: 0; TRPML1 agonist: 4.7; TRPML1 inh: 3; D2 PAM: -3; PINK1 modulator: 0.0%; D2 ag: -2.2

What do the screens show for `CCOc1ccc(CNC(=O)C2CCCN(c3nnc(C)c4c(C)n(-c5ccccc5)nc34)C2)cc1` (configuration not stated)?
Six1-Eya2 inh: -2; TRPML1 agonist: 0.8&2.1; TRPML1 inh: 41&50; D2 PAM: 4; PINK1 modulator: -1.7%&-1.1%; D2 ag: 1.5

How did COc1ccccc1C1=NNC(=Nc2cccc(S(=O)(=O)N(C)C)c2)SC1 do in these assays?
Six1-Eya2 inh: inconclusive; TRPML1 agonist: -0.7; TRPML1 inh: 23; D2 PAM: inconclusive; PINK1 modulator: inconclusive; D2 ag: -4.3

How did OCCN1CCN(C2CCC(c3ccc(F)cc3)c3ccc(F)cc32)CC1 (configuration not stated) do in these assays?
Six1-Eya2 inh: -6; TRPML1 agonist: 0.9; TRPML1 inh: 2; D2 PAM: -7; PINK1 modulator: -3.4%; D2 ag: -5.1

Results for CCOCCCNC(=O)C(c1ccc(OC)cc1)N(Cc1cccs1)C(=O)c1ccccc1O (configuration not stated) ?
Six1-Eya2 inh: 0; TRPML1 agonist: 0.5&0.5; TRPML1 inh: -16&9; D2 PAM: -5; PINK1 modulator: -0.8%&0.0%; D2 ag: -2.7

What do the screens show for `O=c1cc(N2CCN(c3ccc(F)cc3)CC2)[nH]c(=O)n1C1CCCCC1`?
Six1-Eya2 inh: 3; TRPML1 agonist: -0.4; TRPML1 inh: 0; D2 PAM: 26; PINK1 modulator: 9.3%; D2 ag: 2.2

What do the screens show for `COc1ccc(NC(=O)COC(=O)C2CC(=O)N(c3ccc(C)cc3)C2)cc1` (configuration not stated)?
Six1-Eya2 inh: -6; TRPML1 agonist: 0.2; TRPML1 inh: -1; D2 PAM: -1; PINK1 modulator: -1.4%; D2 ag: -1.7

What do the screens show for `COc1ccc(CC(=O)N2CCN(S(=O)(=O)c3ccc(Cl)s3)CC2)cc1`?
Six1-Eya2 inh: 3; TRPML1 agonist: -0.9; TRPML1 inh: -2; D2 PAM: -1; PINK1 modulator: 0.2%; D2 ag: -0.5

How did COC(C[C@@H](O)[C@H](C)[C@H](O)COCc1ccccc1)OC do in these assays?
Six1-Eya2 inh: 8; TRPML1 agonist: -0.4; TRPML1 inh: -4; D2 PAM: -52; PINK1 modulator: 2.2%; D2 ag: -2.1

Results for CN(Cc1ccccc1)C(=O)C1CCN(S(=O)(=O)c2cccc3nonc23)CC1 ?
Six1-Eya2 inh: 4; TRPML1 agonist: -0.3; TRPML1 inh: -3; D2 PAM: -6; PINK1 modulator: 1.7%; D2 ag: -0.3

What do the screens show for `Cc1ccoc1C(=O)NCCNc1ccc(Cl)cc1[N+](=O)[O-]`?
Six1-Eya2 inh: inconclusive; TRPML1 agonist: 2.7; TRPML1 inh: -3; D2 PAM: -14; PINK1 modulator: 0.0%; D2 ag: -1.2

What do the screens show for `O=C(Cn1c2c(c(-c3ccccc3Cl)cc1=O)CCC2)NCC1CCCO1` (configuration not stated)?
Six1-Eya2 inh: 0; TRPML1 agonist: 0.8; TRPML1 inh: -4; D2 PAM: -6; PINK1 modulator: 0.7%; D2 ag: -2.3

What do the screens show for `Fc1cccc(Cl)c1CNCc1cccnc1`?
Six1-Eya2 inh: 9; TRPML1 agonist: -0.3; TRPML1 inh: -2; D2 PAM: -6; PINK1 modulator: -0.8%; D2 ag: 0.0

How did COc1ccc(CNC(=O)C(OC(=O)c2ccco2)c2ccc(OC)cc2)cc1 (configuration not stated) do in these assays?
Six1-Eya2 inh: -7; TRPML1 agonist: -0.6; TRPML1 inh: 9; D2 PAM: -15; PINK1 modulator: 1.3%; D2 ag: -2.7

How did COc1ccc(CC(NC(C)=O)C(=O)NC2CCN(c3ncccc3[N+](=O)[O-])CC2)cc1 (configuration not stated) do in these assays?
Six1-Eya2 inh: 0; TRPML1 agonist: -0.3; TRPML1 inh: -14; D2 PAM: -6; PINK1 modulator: 1.7%; D2 ag: -7.6

Results for COc1ccc(-c2onc(C)c2C)cc1S(=O)(=O)Nc1ccc(OC(F)(F)F)cc1 ?
TRPML1 agonist: 1.3; TRPML1 inh: 21; PINK1 modulator: 8.3%

What do the screens show for `Cc1ccc(S(=O)(=O)NCC(=O)Nc2ccc3c(c2)OCCO3)cc1`?
Six1-Eya2 inh: 3; TRPML1 agonist: -0.7; TRPML1 inh: -6; D2 PAM: -1; PINK1 modulator: -0.7%; D2 ag: 0.9

What do the screens show for `O=C(CSc1ncnc2c1cnn2-c1ccccc1)NC1CCCC1`?
Six1-Eya2 inh: 0; TRPML1 agonist: -0.1; TRPML1 inh: -18; D2 PAM: -1; PINK1 modulator: 1.5%; D2 ag: -1.2

Results for O=C(CCNC(=O)N1CC(=O)Nc2ccccc21)NCCc1ccc(Cl)cc1 ?
Six1-Eya2 inh: -3; TRPML1 agonist: -0.7; TRPML1 inh: -9; D2 PAM: -16; PINK1 modulator: -1.2%; D2 ag: -0.7

What do the screens show for `Cc1nn(-c2ccccc2)c(NC(=O)C(C)C)c(-c2ccccc2)c1=O`?
Six1-Eya2 inh: 4; TRPML1 agonist: -0.4; TRPML1 inh: -6; D2 PAM: -3; PINK1 modulator: 3.3%; D2 ag: 2.7

3 compounds already listed, sorted by count of non-hydrogen atoms, rising:
How did COc1ccccc1C1=NNC(=Nc2cccc(S(=O)(=O)N(C)C)c2)SC1 do in these assays?
Six1-Eya2 inh: inconclusive; TRPML1 agonist: -0.7; TRPML1 inh: 23; D2 PAM: inconclusive; PINK1 modulator: inconclusive; D2 ag: -4.3

Results for O=C1CC(NS(=O)(=O)c2ccc([N+](=O)[O-])cc2)CN1c1ccc2c(c1)OCCO2 (configuration not stated) ?
Six1-Eya2 inh: 0; TRPML1 agonist: 3.0; TRPML1 inh: 24; D2 PAM: inconclusive; PINK1 modulator: -7.4%; D2 ag: inconclusive

What do the screens show for `CCOC(=O)C1(Cc2ccc(OC)cc2)CCN(C(=O)CCc2cnccn2)CC1`?
Six1-Eya2 inh: 2; TRPML1 agonist: 0.5; TRPML1 inh: -4; D2 PAM: 3; PINK1 modulator: 5.3%; D2 ag: -0.5

More structures.
Results for COc1ccc(CNC(=O)C[C@H]2C[C@H](C(=O)N3CCCCC3)[C@@]3(CCc4ccccc4)c4[nH]c5cc(-c6ccco6)ccc5c4CCN3C2=O)cc1OC ?
Six1-Eya2 inh: -12; TRPML1 agonist: -0.7; TRPML1 inh: 9; D2 PAM: -3; PINK1 modulator: 3.4%; D2 ag: -2.1

Results for CC(=O)Nc1ccc(OCC(O)CN2CCN(c3ccc(Cl)cc3)CC2)cc1 (configuration not stated) ?
Six1-Eya2 inh: -4; TRPML1 agonist: 0.8; TRPML1 inh: -15; D2 PAM: -43; PINK1 modulator: 0.5%; D2 ag: -1.4

What do the screens show for `CCN(CC)S(=O)(=O)c1ccc2c(c1)c(=O)c(C(=O)N1CCN(c3ccc(F)cc3)CC1)cn2C`?
TRPML1 agonist: -1.2; TRPML1 inh: -20; PINK1 modulator: 1.6%

What do the screens show for `Cc1ccc(C(=O)Nc2nnn(C)n2)cc1`?
Six1-Eya2 inh: -9; TRPML1 agonist: 0.7; TRPML1 inh: 2; D2 PAM: -23; PINK1 modulator: -0.3%; D2 ag: 3.2

Results for CCOC(=O)Cc1csc(NC(=O)CSc2nc(C)cc(=O)[nH]2)n1 ?
Six1-Eya2 inh: 2; TRPML1 agonist: -0.8; TRPML1 inh: -8; D2 PAM: -12; PINK1 modulator: -0.7%; D2 ag: -5.2
